KCNQ2 enhance = enhances the rat KCNQ2 potassium channel. CHO-K1 KCNQ2, FluxOR thallium flux fluorescence; stronger effect = higher value. B-score at 10 µM. 310,000 tested, 0.54% active. AID 2239;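 active = fluorescence ratio B-score at least 3 SD of library B-scores, with initial fluorescence B-score within 3 SD, cut at about 5.3 in these data; same plate scores as AID 2156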;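 note: B-score of peak minus minimum over baseline fluorescence ratio after K+ and Tl+ stimulus; positive B-score means potentiation of KCNQ2 with more thallium influx and brighter signal; only the inactives scoring about 0 or higher are listed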
Target sequence (O88943 whole entry, looked up): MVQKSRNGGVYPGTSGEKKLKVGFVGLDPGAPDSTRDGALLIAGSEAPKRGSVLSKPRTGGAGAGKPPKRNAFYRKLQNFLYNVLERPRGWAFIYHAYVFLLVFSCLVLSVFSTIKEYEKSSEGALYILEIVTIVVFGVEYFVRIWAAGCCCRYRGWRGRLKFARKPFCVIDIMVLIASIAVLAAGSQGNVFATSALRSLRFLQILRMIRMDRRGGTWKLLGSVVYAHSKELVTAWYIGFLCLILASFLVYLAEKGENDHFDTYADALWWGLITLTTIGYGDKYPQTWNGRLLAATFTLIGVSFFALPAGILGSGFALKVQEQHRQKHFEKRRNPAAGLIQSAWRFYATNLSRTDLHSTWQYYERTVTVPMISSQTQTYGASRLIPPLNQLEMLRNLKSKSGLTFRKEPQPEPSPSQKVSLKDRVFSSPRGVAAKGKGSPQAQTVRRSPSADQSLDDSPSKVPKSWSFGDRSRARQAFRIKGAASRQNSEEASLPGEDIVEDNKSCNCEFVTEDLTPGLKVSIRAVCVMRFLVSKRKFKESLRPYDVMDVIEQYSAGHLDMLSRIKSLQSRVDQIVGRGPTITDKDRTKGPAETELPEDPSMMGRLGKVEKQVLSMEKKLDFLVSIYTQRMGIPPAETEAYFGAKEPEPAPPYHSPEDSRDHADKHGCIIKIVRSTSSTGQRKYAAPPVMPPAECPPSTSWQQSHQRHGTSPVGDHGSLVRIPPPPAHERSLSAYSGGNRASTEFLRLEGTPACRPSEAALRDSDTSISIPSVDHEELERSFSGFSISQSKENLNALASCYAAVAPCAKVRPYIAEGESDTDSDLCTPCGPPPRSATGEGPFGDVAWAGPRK
KCNQ2 enhance baseline = also measured in KCNQ2 enhance; calls as there; B-score; compound at 10 µM; measured here: initial fluorescence intensity artifact check;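 brightness before thallium and not channel activity; 0 = typical well and far values either way flag optical interference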
Active calls of the source: *; . = not tested or not shown.

SMILES	KCNQ2 enhance	KCNQ2 enhance baseline
COc1cc(C2NC(=O)NC(C)=C2C(=O)OCc2ccccc2)ccc1O (stereo unspecified)	1.1	2.6
O=C(CSCc1ccc([N+](=O)[O-])cc1)NC1CC2CCC1C2 (stereo unspecified)	2.6	1.8
CN(C)/C=N/c1ncc(C(=O)c2ccc(-c3ccccc3)cc2)s1	1.1	-0.41
O=C(O)CSc1cccc2cccnc12	1.7	.
COc1ccc(S(=O)(=O)Cc2ccc(C(=O)N3CCN(c4cccc(C)c4C)CC3)o2)cc1	0.25	-0.99
CC(CC(=O)NC1CCCC1)c1ccccc1 (stereo unspecified)	0.97	-2
COC(=O)c1ccc(CNC(=O)COC(=O)CC23CC4CC(CC(Br)(C4)C2)C3)cc1	0.3	0.02
Cc1ccc(C(=O)N/N=C\c2c(C)nn(-c3ccccc3)c2Cl)cn1	1.4	0.04
CC(C)(C)n1cnc2cc(NC(=O)c3ccc(Cl)cc3)ccc21	0.72	0.15
CCOC(=O)c1ccc(N2C(=O)CC(N(C)Cc3ccccc3)C2=O)cc1 (stereo unspecified)	0.96	0.9
COC(=O)c1nnn(-c2ccc(Cl)c(Cl)c2)c1C(=O)OC	3	-0.11
COC(=O)C1CCN(C(=O)COC(=O)Cn2cnnn2)CC1	0.78	-0.37
c1ccc(CSc2ncnc3c2cnn3-c2ccccc2)cc1	0.15	1.4
Cc1cc2ccccc2c(=O)n1CC(=O)NCC(=O)N1CCN(c2cccc(Cl)c2)CC1	0.13	-0.28
CC1Sc2ccc(Cl)cc2-c2nc(N)ncc21 (stereo unspecified)	0.85	-0.62
CC(C)Nc1ncnc2c1cnn2Cc1ccc(Cl)cc1	0.68	1.1
CCc1ccc(NC2=NC(C(=O)NC3CCCCC3)CC(=O)N2)cc1 (stereo unspecified)	0.75	0.93
O=C(Cc1nc(-c2ccc([N+](=O)[O-])cc2)cs1)Nc1ccccc1	0.08	0.82
O=C(NCC(F)(F)F)N1CCOCC1	0.15	1.2
CCOC(=O)c1cc(-c2ccc(OC)cc2)nc2c1c(C)nn2CCC#N	0.21	-0.64

Compound profiles, from the list above. Screens in order: KCNQ2 enhance	KCNQ2 enhance baseline
Cc1cc2ccccc2c(=O)n1CC(=O)NCC(=O)N1CCN(c2cccc(Cl)c2)CC1 reads 0.13	-0.28
O=C(CSCc1ccc([N+](=O)[O-])cc1)NC1CC2CCC1C2 (stereo unspecified) reads 2.6	1.8
COC(=O)C1CCN(C(=O)COC(=O)Cn2cnnn2)CC1 reads 0.78	-0.37
CN(C)/C=N/c1ncc(C(=O)c2ccc(-c3ccccc3)cc2)s1 reads 1.1	-0.41

The listing continues.
SMILES	KCNQ2 enhance	KCNQ2 enhance baseline
CC1=CC(C)[C@H](/C=N/n2c(=O)[nH]c3c([nH]c4ccc(C)cc43)c2=O)C(C)C1 (stereo partly specified)	0.05	-0.07
COc1cccc(C(=O)OC(C)CN2CCCC2)c1 (stereo unspecified)	0.67	0.04
O=S(=O)(c1ccc(Br)c2ccccc12)N1CCCC1	0.4	-0.84
Cc1ccc(C(=O)N/C(=C/c2cccs2)C(=O)N2CCCCC2)cc1	0.14	-1.2
O=C(Nc1ccc2c(c1)OCCO2)c1c(F)c(F)c(F)c(F)c1F	1.4	-0.84
COc1ccc(OCC(=O)OCC(=O)N2CC(=O)Nc3ccccc32)cc1	0.48	0.37
Cc1c(NC(=O)Cn2nc(C(=O)O)c3ccccc3c2=O)c(=O)n(-c2ccccc2)n1C	0.25	-0.13
C/C(=N\NC(=O)OC(C)(C)C)c1ccc[nH]1	0.36	0.98
CS(=O)(=O)Nc1ccc(OCc2ccccc2)cc1	0.33	-0.13
CC(C)(C)NC(=O)NC(=O)COC(=O)c1nc(-c2ccccc2)n(-c2cccc(C(F)(F)F)c2)n1	1.8	-1.6
COc1cccc(OCc2nnc(SCc3cc(=O)[nH]c4ccccc34)o2)c1	0.58	-0.4
Cc1nnc(-c2ccc(N3CCCCCC3)c([N+](=O)[O-])c2)o1	0.7	-0.07
Cn1c(N)c(C(=O)CSc2nc3ccccc3n2-c2ccccc2)c(=O)n(C)c1=O	0.43	0.77
CSC1=C(C#N)C(CC(C)C)C(C(C)=O)=C(C)N1 (stereo unspecified)	1.2	-0.92
COc1cccc(-n2c(=S)sc3c(=O)n(-c4ccccc4OC)c(SCC4OCCO4)nc32)c1	0.39	-0.17
CCCn1c(SC(C)C(=O)O)nc2ccccc21 (stereo unspecified)	0.58	0.93
COc1ccccc1NC(=O)COC(=O)C12CC3CC(CC(Cl)(C3)C1)C2	0.59	-1.2
COc1ccc(Cc2c(N)nc(N)nc2N)cc1	2.3	0.71
CCOC(=O)c1c(C)oc2ccc(NS(=O)(=O)c3ccc(C(=O)O)cc3)cc12	0.79	0.87
O=C(c1ccccc1)c1cnc(-c2ccc(Cl)cc2)s1	0.08	-1.4
COc1ccc(NC(=O)c2cnn(-c3ccccc3)c2C)cc1OC	0.68	-1.6
N#CCN1C(=O)NC2(CCCc3sccc32)C1=O (stereo unspecified)	0.2	3
CN(c1ccc(C(=O)NCCc2ccccc2)cc1)S(C)(=O)=O	1.7	0.41
COc1ccc(C)cc1S(=O)(=O)N1CCC2(CC1)OCCN2S(=O)(=O)c1cccs1	1.8	0.39
COC(=O)N[C@H](CC(C)=O)c1cccc(C(F)(F)F)c1	1.1	-0.6
O=C(Nc1ccon1)c1cccc(Cl)c1	0.91	-0.61
O=C(c1ccc(CNS(=O)(=O)c2cccc(Cl)c2)cc1)N1CCCCC1	0.2	0.98
Cc1ccc(C2C(C#N)=C(N)OC3=C2C(=O)CCC3)s1 (stereo unspecified)	6.5*	0.9*
COc1ccc(/C=N/N2CCOCC2)cc1OCc1ccccc1	0.3	-1.4
COc1ccc(OC)c(N/C(=N/c2nc(C)cc(C)n2)NC(C)=O)c1	1.8	1.3
NS(=O)(=O)c1ccc(CCNC(=O)COC(=O)/C=C/c2ccc(Cl)cc2)cc1	0.29	-2.2
CCCCCCCCCCCCOC1OC(CO)C(O)C(O)C1NC(C)=O (stereo unspecified)	0.41	-0.78
CC(C)(C)c1nc2ccccc2[nH]1	0.01	-0.75
Cc1ccccc1C(=O)Nc1ccc(-c2nnc(SC(C)C(=O)O)n2C)cc1 (stereo unspecified)	1.4	0.36
S=c1[nH]nc(-c2cccnc2)n1/N=C/C(Cl)=C\c1ccccc1	0.65	0.01
Cc1ccccc1CNc1ccc(C(CC(N)=O)NC(=O)c2ccccc2)cc1[N+](=O)[O-] (stereo unspecified)	0.14	1.8
COc1ccc(CNC(=O)c2ccccc2SC)cc1	0.3	-3.1
COc1ccc(S(=O)(=O)N(C)c2ccc(C(=O)NCc3ccccn3)cc2)cc1OC	0.69	0.12
Cc1ccc(S(=O)(=O)NC(=O)NC(C)(C)C)cc1	1.1	-0.34
O=C(CSc1ncnc2c1oc1ccccc12)Nc1ccc2c(c1)OCCO2	1.4	3.1
Cc1ccc(NC(=O)c2cc(C)no2)cc1	0.68	2.1
CCOC(=O)N1CCC(NC(=O)CSCc2nc(-c3ccc(OCC)cc3)oc2C)CC1	0.26	0.24
O=C(COC(=O)c1ccccc1S(=O)(=O)N1CCCCC1)NCC(F)(F)F	0.47	0.48
CSc1nnc(SCC2=NNC(=O)SC2)s1	1	0.12
CCOc1ccc(NC(=S)NCc2ccc3[nH]c(C)cc3c2)cc1	0.24	-0.7
CC1(C)CC(N=C2C([N+](=O)[O-])=CC=C3C2=NC2(CCCCC2)N3O)CC(C)(C)N1	1.3	-2.5
Cc1c(NC(=O)OCCNC(=O)Nc2ccccc2)sc(=S)n1C	0.8	0.54
CCc1ccccc1NS(=O)(=O)c1ccc2c(c1)C(C)(C)C(=O)N2C	0.81	0.02
CC(C)(C)CC(=O)NCCc1csc(-c2ccccc2)n1	2.6	-0.22
COc1ccc(/C=N/NC(=O)CNc2ccc(Br)cc2)c(C(=O)O)c1OC	0.15	-0.74

Next section.
SMILES	KCNQ2 enhance	KCNQ2 enhance baseline
CC(Sc1nccn1C)C(=O)Nc1ccc(C(N)=O)cc1 (stereo unspecified)	0.03	0.32
COc1ccccc1CN1CCNC(=O)C1CC(=O)NCCCn1cccn1 (stereo unspecified)	0.65	1.4
CCc1ccc(NC(=O)[C@H](C)NC(=O)C2CCN(C(=O)[C@@H](N)CC(C)C)CC2)cc1	0.25	1.6
CCOc1ccc(C(CC(=O)O)NC(=O)C23CC4CC(CC(C4)C2)C3)cc1OC (stereo unspecified)	1.8	0.39
O=C(C1CCCCC1)N1CCC(n2nnc3ccccc32)CC1	0.39	-1
Cc1cccc(NS(=O)(=O)c2cc(C(=O)NCc3ccccn3)ccc2C)c1	0.28	-0.8
CCOC(=O)COc1nc(C)cc(C(F)(F)F)c1C#N	0.13	0.04
O=C(c1cccc(C(F)(F)F)c1)N1CCN(c2cc(=O)[nH]nc2-c2ccccc2)CC1	2.3	-2
OCC1OC(n2cnc3c(NC4CCCCC4)ncnc32)C(O)C1O (stereo unspecified)	0.34	-0.2
COCCN(C(=O)Nc1ccccc1)C(C)c1cccnc1 (stereo unspecified)	1.4	0.58
O=C(CN1CCN(Cc2ccccc2)CC1)Nc1cccc(Cl)c1	0.37	-0.07
CC(C)C(=O)NNC(=O)c1c(O)c2ccccc2[nH]c1=O	0.25	-0.75
COc1ccc(NC(=O)CC2C(=O)OCC3CCCCN32)cc1Cl (stereo unspecified)	1.2	-0.61
O=c1oc2ccccc2c(N2CCCCC2)c1CN1CCCC1	0.59	1.5
CC(NC(=O)C1CCCN(S(=O)(=O)c2cccs2)C1)c1ccccc1 (stereo unspecified)	0.53	0.63
CCOC(=O)COc1cccc2c(=O)n(CC(=O)N3CCC(C)CC3)ccc12	1.2	-1
CCN(CC)CCN1C(=O)C(=O)/C(=C(/O)c2ccc(F)cc2)C1c1ccncc1 (stereo unspecified)	1.3	0.06
COc1cc(-c2noc(CCCC(=O)Nc3cccnc3)n2)cc(OC)c1OC	1.2	-0.76
COC(=O)C1=CNC=C(C(=O)OC)C1c1ccc(C(=O)OC)cc1	1.3	-0.15
CCOc1ccc(CCNC(=O)c2ccc(CS(=O)Cc3ccccc3Cl)o2)cc1 (stereo unspecified)	0.05	-0.08
CCCCNC(=O)CSc1nc2ccsc2c(=O)n1CCCC(=O)NCCc1ccc(S(N)(=O)=O)cc1	1.2	-0.9
COc1cccc(CC2(CO)CCN(Cc3ccc4cccc(F)c4n3)CC2)c1	0.06	-3.8
N#CCCN1CCN(S(=O)(=O)c2ccc(S(=O)(=O)N3CCCCCC3)cc2)CC1	2	-0.1
O=C(C1CCCN1S(=O)(=O)c1ccc(Br)cc1)N1CCOCC1 (stereo unspecified)	1.1	1.1
CCOc1ccc(-c2nc(CSCC(=O)NCCN3CCOCC3)c(C)o2)cc1	0.15	4.5
O/N=C1\CCc2cc(Cl)ccc21	1.2	2.1
C=CCN1C(=O)CS/C1=C(\C#N)S(=O)(=O)c1ccc(C)cc1	2	1.7
NC(=O)COC(=O)c1sc2cc(F)ccc2c1Cl	0.92	-0.74
CCOC(=O)c1cn(CC)c2cc(N3CCCCC3)c(F)cc2c1=O	0.81	0.04
Cc1nc(NCCN2CCOCC2)c2nnn(Cc3c(F)cccc3Cl)c2n1	0.94	-0.55

In the list so far, these contain a tert-butyl group:
SMILES	KCNQ2 enhance	KCNQ2 enhance baseline
CC(C)(C)n1cnc2cc(NC(=O)c3ccc(Cl)cc3)ccc21	0.72	0.15
C/C(=N\NC(=O)OC(C)(C)C)c1ccc[nH]1	0.36	0.98
CC(C)(C)NC(=O)NC(=O)COC(=O)c1nc(-c2ccccc2)n(-c2cccc(C(F)(F)F)c2)n1	1.8	-1.6
CC(C)(C)c1nc2ccccc2[nH]1	0.01	-0.75
Cc1ccc(S(=O)(=O)NC(=O)NC(C)(C)C)cc1	1.1	-0.34
CC(C)(C)CC(=O)NCCc1csc(-c2ccccc2)n1	2.6	-0.22

More compounds follow.
SMILES	KCNQ2 enhance	KCNQ2 enhance baseline
CC(C)OC(=O)CSc1nnc(C2CCCCC2)n1N	0.81	0.03
CCCCOc1ccc(-c2nc(/C=N/c3nccs3)c(O)o2)cc1	1.6	0.02
Fc1ccc(CNC(=S)Nc2ccccc2F)cc1	0.73	0.38
Cc1cc(C)nc(SCC2COc3ccccc3O2)n1 (stereo unspecified)	0.03	0.02
CC(C)(CNCC(O)c1ccccc1)N1CCOCC1 (stereo unspecified)	0.43	-0.11
CCOC(=O)c1ccc(NC(=O)NCCc2ccccc2OC)cc1	0.15	0.5
O=C(Nc1ccccc1C1CC1)c1cccs1	0.31	-0.07
CCOc1ccc(NC(=O)CN(C)C(=O)CCCOc2ccc(Br)cc2)cc1OCC	1.1	0.8
Cc1csc(NC(=O)CSc2nc3ccccc3c3c2CCCC3)n1	0.95	0.21
CCOC(=O)COc1cccc2c(=O)n(CC(=O)NCc3ccc(F)cc3)ccc12	0.48	-1.5
COC(=O)c1cc(S(=O)(=O)NCC2CCN(Cc3cc(C)ccc3C)CC2)c[nH]1	0.05	-0.02
COC(=O)c1cc(C(=O)c2ccc(Cl)cc2)n2c(=O)/c(=C\N(C)C)sc12	0.66	-0.33
O=C(/C=C/c1ccccc1)NCCN1CCOCC1	0.08	0.26
CCC1=NN(C(=O)c2ccc(Br)cc2)C(O)(c2ccc(C)cc2)C1 (stereo unspecified)	2.2	2.5
O=C(NC(=O)N1CCCc2ccccc21)c1ccccc1	0.32	-0.85
COc1ccc(NC(=O)CN(c2ccc(C(C)C)cc2)S(=O)(=O)c2c(C)noc2C)cc1OC	1.5	1
CCCCC(CC)CNC(=O)C1CCCN(S(=O)(=O)c2cnc[nH]2)C1 (stereo unspecified)	0.85	-1.2
Cc1nc2sccn2c(=O)c1Br	0.34	-0.06

From PubChem

This is a subset, so the mix of outcomes need not match the whole.
